Bioassay records from PubChem.
ClpP mod: qHTS Assay for Activators of ClpP | purified B. subtilis ClpP, FRET peptide cleavage, 20 min | Potency, µM (titrated, usually from 57.5 µM), for the others: at the top dose activity change, negative = active | 340,000 compounds, 1.9% hits | AID 651965, 2013; active = well fitted falling curve with a large enough effect; inconclusive = small, poorly fitted or top-dose-only effect; inactive = no such curve, though single readings can be large or run the other way; note: potency is the fitted concentration of half-maximal effect; the source files actives as falling curves though it sought activators and does not explain the sign; nearly all actives have a fitted effect of over 65% in size; many hits overshoot -100%
Target sequence (P80244 whole entry, looked up): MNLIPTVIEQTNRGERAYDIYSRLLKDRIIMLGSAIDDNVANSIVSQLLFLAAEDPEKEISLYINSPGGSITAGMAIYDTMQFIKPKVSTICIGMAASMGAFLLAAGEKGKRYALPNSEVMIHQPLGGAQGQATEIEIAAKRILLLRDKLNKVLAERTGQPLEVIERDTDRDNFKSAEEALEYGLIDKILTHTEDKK
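ClpP 10 microg/mL final, pH 8 Tris/KCl buffer with BSA, glycerol, Tween-20; compound pinned in; FRET-FV substrate; RT 20 min; Ex320/Em430; ΔFRET vs ADEP 5.8 microM, DMSO, no enzyme.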
gsp antagonist: gsp mutant antagonism; gsp-mutant cells, cAMP HTRF, 30 min; control for the full effect not named in the record; Potency, µM (top dose mostly 76.9 µM), inactives show top-dose activity change, negative = inhibition, most hits filed as inhibitors; 340,000 compounds, 0.4% hits; active = falling curve of any shape with a large fitted effect; inconclusive = falling curve, mostly with a smaller effect; inactive = flat or rising curve; cell line not stated here;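 note: intracellular cAMP measured with PDE inhibitor Ro 20-1724 present during compound exposure; potency is the fitted concentration of half-maximal effect; % is set by controls: 0 for no effect and ±100 for the full control effect; nearly all actives have a fitted effect of over 65% in size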
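Measurement of cellular cAMP by homogeneous time-resolved fluorescence following a 30 min compound exposure at 37C. The PDE inhibitor […] was present throughout; the assay buffer was DPBS with 0.05% BSA and 0.005% Tween 20.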
gsp agonist: gsp mutant agonism. gsp mutant cells, cAMP HTRF, 30 min; control for the full effect not named in the record. Potency, µM (series often up to 76.9 µM), without a hit: at the top dose activation (cAMP increase), hits mostly activators. 340,000 compounds, 0.13% hits. AID 624287; active = well fitted activation curve with a large enough effect; inconclusive = small, poorly fitted or top-dose-only effect, or another doubt; inactive = no such curve, though single readings can be large or run the other way; cell line not stated here;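 note: phosphodiesterase inhibitor Ro 20-1724 added with compounds to block cAMP breakdown; potency is the fitted concentration of half-maximal effect; nearly all actives have a fitted effect of over 60% in size; about a fifth of the inactives were tested at one dose only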
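Cells stably selected in G418 were plated at 2000/well, grown 16-24 hr, then given compounds in DMSO with the PDE inhibitor […] (300 uM solution added) for 30 min at 37C; cAMP was read by HTRF.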
Menin MLL FP FL: menin-MLL binding inhibition, fluorescein peptide | Fluorescence polarization, fluorescein-MLL peptide displacement from menin | FP activity change, % at 61.4 µM | 290,000 tested, under 10 active | AID 1766; inconclusive = falling polarisation curve, or a change in total fluorescence; inactive = total fluorescence flat and polarisation flat or rising; no compound was filed as active; the % refers to the polarisation; negative = inhibition;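 note: % of control where 0% means no effect; inhibitors lower the polarisation; unlabelled MLL peptide was the positive control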
TRPML1 blocker: human mucolipin-1 channel inhibition. Q9GZU1. 390,000 compounds, 0.02% hits. TRPML1-inducible cells, Ca2+ dye fluorescence, FDSS; active compounds read low; inhibition of EC80 agonist-evoked calcium signal. activity change, negative = inhibition, % (no concentration beside the values). AID 624415; in the data active means activity change below about -50%; inconclusive means about -30% to -50%; inactive means above about -30%;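 note: stimulus is agonist 54-4 at its EC80 concentration; % is set by controls: 0 for no effect and ±100 for the full control effect; compound concentration not given in the record; the text of the record puts the active cut at -80%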
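Tet-induced TRPML1-DL cells loaded with Ca8 no-wash calcium dye were read kinetically on FDSS. Compound addition was followed by EC80 agonist 54-4 (4 uM final); inhibition was read over 110 s.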
Sfp inh: blocks B. subtilis Sfp PPTase activity; Q9F4F7; Potency, µM, for inactives: max response, negative = inhibition, usual class: inhibitors; 310,000 compounds, 3.5% hits; Biochemical Sfp PPTase activity, qHTS; AID 1490; active = well fitted inhibition curve with a large enough effect; inconclusive = small, poorly fitted or top-dose-only effect, or another doubt; inactive = no such curve, though single readings can be large or run the other way;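 note: the enzyme is Sfp with the accession as filed and its product quenches rhodamine fluorescence; potency is the fitted concentration of half-maximal effect; 0% = enzyme reaction without inhibitor and -100% = no enzyme wells; top concentration of the series not given in the record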
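Compounds were incubated with enzyme (final 15 nM) for 15 min at room temperature before substrate addition started the reaction. Fluorescence at 525 nm excitation, 598 nm emission was recorded immediately and after 30 minutes.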
TRPV1 potentiator: potentiators of human vanilloid receptor 1 (TRPV1); TRPV1-expressing cells, Fluo-8 calcium influx, capsaicin EC20 potentiation; host cell line not named in the record; control for the full effect not named in the record; Q8NER1; 320,000 compounds, 0.02% hits; potentiation, % at 8.33 µM; active means potentiation above 80%; inconclusive means 30% to 80%; inactive means below 30%; note: 0% is about no effect
Target sequence (Q8NER1 whole entry, looked up): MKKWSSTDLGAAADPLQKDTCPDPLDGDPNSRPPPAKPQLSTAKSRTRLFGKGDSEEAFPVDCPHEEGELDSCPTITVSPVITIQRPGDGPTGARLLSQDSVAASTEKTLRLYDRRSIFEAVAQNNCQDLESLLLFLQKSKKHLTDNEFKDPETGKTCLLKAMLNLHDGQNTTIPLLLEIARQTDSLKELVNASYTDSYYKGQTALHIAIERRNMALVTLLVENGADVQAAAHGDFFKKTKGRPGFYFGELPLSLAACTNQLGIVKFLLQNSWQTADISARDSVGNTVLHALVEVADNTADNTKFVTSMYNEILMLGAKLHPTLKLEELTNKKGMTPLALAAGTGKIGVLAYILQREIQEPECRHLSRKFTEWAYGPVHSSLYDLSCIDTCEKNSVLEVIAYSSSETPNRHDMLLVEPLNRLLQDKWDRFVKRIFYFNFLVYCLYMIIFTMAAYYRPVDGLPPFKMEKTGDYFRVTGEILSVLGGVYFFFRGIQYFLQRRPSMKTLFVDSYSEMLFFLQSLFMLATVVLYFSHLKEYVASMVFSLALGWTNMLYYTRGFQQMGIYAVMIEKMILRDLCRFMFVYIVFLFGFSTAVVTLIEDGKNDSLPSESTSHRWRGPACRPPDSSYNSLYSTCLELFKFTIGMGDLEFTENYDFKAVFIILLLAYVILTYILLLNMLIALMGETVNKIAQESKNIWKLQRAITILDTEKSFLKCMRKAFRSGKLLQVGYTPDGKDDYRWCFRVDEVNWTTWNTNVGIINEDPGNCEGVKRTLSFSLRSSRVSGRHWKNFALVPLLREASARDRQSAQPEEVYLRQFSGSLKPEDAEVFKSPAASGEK
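Cells expressing TRPV1 were dye-loaded with Fluo-8 and read kinetically: 10 s baseline, 3 min after compound (agonist portion), then 2 min after EC20 capsaicin (allosteric enhancer portion). Calcium-bound dye fluorescence at 480/520 nm.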
An asterisk follows results filed as active; ? = inconclusive; · = not tested or not shown; [ ] = dose if it differs, or a comment.

SMILES	ClpP mod	gsp antagonist	gsp agonist	Menin MLL FP FL	TRPML1 blocker	Sfp inh	TRPV1 potentiator
CCCC(=O)Nc1nc(CC(=O)OCC)cs1	·	3%	5%[15.4 µM]	-1.6	10	12%	19
O=C(Cc1ccc(-n2c(=O)c3ccccc3n(Cc3cccc([N+](=O)[O-])c3)c2=O)cc1)NCC1CCCO1 (centres undefined)	·	·	·	2.4	·	10%	-6
CCCc1cc(C(=O)Nc2ccc(Cl)cn2)cs1	-0.7%	4%	26%	-1.5	-9	3%	-7
O=[N+]([O-])C1C(c2ccccc2)=NOC1c1ccccc1O (centres undefined)	-0.3%	-24%	4%	0.4	5	16%	?
C=CCOc1ccc(/C=N/NC(=O)C(=O)Nc2ccccn2)cc1OC	-0.8%	-10%	7%[15.4 µM]	0.8	2	-12%	-2
CC1CCN(C(=O)CSc2nc3c(cnn3-c3ccc(Cl)cc3)c(=O)[nH]2)CC1	-3.0%	1%	28%	-1.5	-9	3%	3
COc1ccc(C2C(C#N)=C(/N=C/N3CCN(C)CC3)OC3=C2C(=O)CC(C)(C)C3)cc1OC (centres undefined)	0.2%	-7%	1%	2.2	-9	-4%	-4
CCOC(=O)N1CCN(C(=O)c2ccccc2NC(=O)c2ccc(C(C)(C)C)cc2)CC1	·	0%	1%[15.4 µM]	4.7	-28	-3%	-3
COc1ccc(OC)c(NC(=O)CS(=O)(=O)Cc2nc(-c3ccccc3C)oc2C)c1	1.7%	?	22%	1.6	-7	0%	-13
Cc1ccc(S(=O)(=O)N=C2SCCCS2)cc1	1.3%	1%	-3%	1.4	-1	16%	6
CC(C)CCNC(=O)c1cc(-c2cccs2)nc2ccccc12	4.3%	-13%	23%	3.1	11	-5%	10
CCN1C(=O)[C@@H]2[C@@H](c3ccc(-c4ccccc4)cc3)N3CCCC[C@@]3(C(=O)OC)[C@@H]2C1=O	-1.1%	-1%	-42%[inhibitor]	·	23	·	?
CC(=O)Nc1ccc(-c2nnc(SCc3ccccc3C#N)n2C)cc1	-1.4%	12%	12%	-1.4	2	14%	-1
CC1CCCC(NC(=O)c2ccc3c(c2)N(Cc2ccccc2)C(=O)CS3=O)C1C (centres undefined)	-0.2%	-4%	-34%[inhibitor]	-0.8	-23	9%	6
Cc1nnc(SCC(=O)c2ccccc2)n1Cc1ccccc1	-2.4%	6%	17%[15.4 µM]	1.4	-2	-1%	-6
O=C(Cc1ccccc1)Nc1ccccc1C(=O)N1CCCCCC1	0.7%	2%	?	1.9	-3	24%	1
OCCC1CN(Cc2cccn2-c2ccccn2)CCN1C1CCCCC1 (centres undefined)	·	5%	3%[15.4 µM]	-1.0	24	4%	2
CC(C)CNC(=O)c1c(N)n(/N=C/c2cccnc2)c2nc3ccccc3nc12	·	·	·	0.6	·	8%	-1
CCC(CC)c1nc(C#N)c(NCc2ccccc2)o1	-19%	19%	0%	3.0	21	11%	-5
Cc1ccc(Oc2nc(-c3ccccc3)ncc2S(=O)(=O)c2ccc(C)cc2)cc1	22µM*	7%	-3%	1.0	-5	-6%	-9

A second format for 2 compounds above:
Values run as follows: ClpP mod	gsp antagonist	gsp agonist	Menin MLL FP FL	TRPML1 blocker	Sfp inh	TRPV1 potentiator
> CC1CCCC(NC(=O)c2ccc3c(c2)N(Cc2ccccc2)C(=O)CS3=O)C1C (centres undefined)
→ -0.2%	-4%	-34%[inhibitor]	-0.8	-23	9%	6
> Cc1nnc(SCC(=O)c2ccccc2)n1Cc1ccccc1
→ -2.4%	6%	17%[15.4 µM]	1.4	-2	-1%	-6

The results go on:
SMILES	ClpP mod	gsp antagonist	gsp agonist	Menin MLL FP FL	TRPML1 blocker	Sfp inh	TRPV1 potentiator
COC(=O)c1nn(-c2cccc(Cl)c2)ccc1=O	-0.2%	12%	-1%	-3.2	-5	3%	-5
COc1cccc(CNC(=O)CCNC(=O)C2CCN(S(=O)(=O)c3ccc(F)cc3)CC2)c1	0.4%	10%	0%	·	-7	10%	0
CNC(=S)N/N=C/c1ccc(N2CCOCC2)s1	-5.1%	?	-6%	-0.3	12	8.9µM*	20
COc1cccc(N2CC(C(=O)Nc3nnc(SCC(=O)N4CCCC4)s3)CC2=O)c1 (centres undefined)	0.1%	0%	-3%[15.4 µM]	·	-1	-16%	-7
C/C(=N\NC(=O)CN1CCN(S(=O)(=O)c2ccc(C)cc2)CC1)c1cccnc1	0.6%	9%	-10%	2.1	4	5%	7
COc1ccc(N2CCc3c(C)nc4c(OC)cccc4c32)cc1	-4.2%	22%	28%	-5.0	-8	6%	4
COc1cc2c(cc1OC)C1(CCCC1)CNC2c1cccc([N+](=O)[O-])c1 (centres undefined)	·	-2%	-1%[15.4 µM]	-3.1	31	-2%	-5
CC1(C2CC2)NC(=O)N(CC(=O)NCC(=O)Nc2ccc(F)c(F)c2F)C1=O (centres undefined)	·	15%	-32%[inhibitor]	·	-4	·	·
Cc1cccc(/N=C/C2=C(O)CC(C)(C)CC2=O)n1	-0.7%	-3%	8%[15.4 µM]	9.9	4	17%	6
COc1cc(-c2c(C#N)c(N)nc3c2CCCC3)cc(OC)c1OC	-17%	7%	-30%[inhibitor]	0.9	20	5%	1
CCOc1ccc(-c2nnn(CC(=O)Nc3cc(OC)ccc3OC)n2)cc1OCC	0.0%	11%	-59%[inhibitor]	7.9	7	7%	5
CCC(=O)n1nc(-c2ccc(OC)cc2)nc1N	39%	-8%	0%	0.5	2	11%	1
Cn1cc(C(=O)N2CCc3ccccc3C2)c(=O)c2cc(S(=O)(=O)N3CCCCC3)ccc21	·	·	·	-1.3	·	5%	8
COc1ccc([N+](=O)[O-])cc1N(CC(O)CN1C(=O)NC(C)(C)C1=O)S(=O)(=O)c1ccccc1 (centres undefined)	·	1%	-41%[inhibitor]	-0.1	1	7%	?
COC(=O)C(NC(=O)c1ccc(F)cc1)(Nc1nc(C)cs1)C(F)(F)F (centres undefined)	0.7%	2%	-9%	0.4	9	13%	1
O=C(/C=C/c1ccco1)N(Cc1ccc(F)cc1)C1CCS(=O)(=O)C1 (centres undefined)	·	-11%	19%	2.8	-1	-30%	4
O=C(O)CCC(NC(=O)c1cncc(O)c1)C(=O)O (centres undefined)	25µM*	4%	-4%	-0.9	6	14%	9
Cc1nnnn1/C(=C\c1ccccc1)C(=O)OCC(=O)N(C)C1CCS(=O)(=O)C1 (centres undefined)	·	6%	-15%[15.4 µM]	4.9	17	10%	-3
COCCn1nnnc1C(c1cc2ccc(OC)cc2[nH]c1=O)N1CCc2ccccc2C1 (centres undefined)	?	-8%	19%	-5.7	4	13µM*	2
C[C@H](NC(=O)c1nc[nH]c1C(=O)NCc1ccccc1)C(=O)OC(C)(C)C	1.3%	12%	·	1.7	-11	-16%	?
O=C(COc1cc(Cl)ccc1Cl)Nc1nnc(C2CC2)s1	0.7%	-2%	-40%[inhibitor]	·	-22	-22%	22
CCOC(=O)N1CCC(NCCNC(=O)c2ccc(F)cc2)CC1	1.0%	-4%	·	·	-3	·	?
CCN(CC)C(=O)Cn1cnc2sc(C(=O)N3CCN(c4ccc(OC)cc4)CC3)c(C)c2c1=O	-1.7%	-17%	7%	-1.3	6	6%	6
O=C(NCCC(=O)N1CCCCC1)c1ccc(Br)cc1	1.4%	4%	3%	·	7	8%	-24
CC1(C)Cc2nc3[nH]c(=S)[nH]c(=O)c3cc2CO1	·	-4%	0%[15.4 µM]	3.0	8	?	7
O=C(Nc1ccnc(-c2cccnc2)n1)c1ccc(F)cc1	·	·	·	-2.3	·	18%	1
Cc1ccc(OCCn2cc(C#N)c3ccccc32)cc1	-1.2%	4%	14%	1.7	27	4%	14
COc1ccc(F)cc1S(=O)(=O)Nc1cccc(C(=O)O)c1	-22%	11%	-15%	-2.5	1	30%	2
C=CCn1c(Sc2ccccc2)nc2c1c(=O)[nH]c(=O)n2C	-24%	9%	-50%[inhibitor]	1.0	-8	16%	1
CC(C)NC(=O)CN(C(=O)CCC(=O)Nc1nccs1)c1ccc(C(C)C)cc1	0.4%	-5%	9%	-1.1	-10	9%	9
COc1cc(CNC(=O)c2cc3ccccc3oc2=O)cc(OC)c1OC	·	-5%	32%[15.4 µM]	·	41	·	·
O=C(O)c1ccccc1-c1ccccc1C(=O)NNc1ccc([N+](=O)[O-])cc1	·	3%	3%	4.6	-6	2%	16
CC1=C(C(N)=O)C(c2ccccn2)n2nc(SCc3ccccc3Cl)nc2N1 (centres undefined)	-2.7%	-6%	-3%	5.5	1	7%	-1
CN1C[C@H]2CON(C)[C@H]2C[C@H]1c1cccc(-c2ccc(C#N)cc2)c1	-2.2%	9%	·	·	34	·	·
CN(C)CCCNS(=O)(=O)c1ccc(N2CCC(c3ccc(Cl)cc3)=N2)cc1	·	·	·	2.0	·	?	-10
Cc1cc(=O)n2c(n1)NC(Nc1cccc(C)c1C)=NC2c1ccc(F)cc1 (centres undefined)	·	1%	10%	1.2	8	23%	-6
Cc1ccc2nc(SCc3cccc([N+](=O)[O-])c3)nc(C)c2c1	3.8%	-9%[15.4 µM]	-3%	0.1	-8	-3%	1
Cc1cc(C)c2cc(C#N)c(NCCOC(=O)c3ccccc3C)nc2c1	28µM*	-4%	8%	0.9	11	-2%	-5
CCCc1cc(=O)n2c(nc3ccccc32)[nH]1	7.1µM*	-4%	1%	0.0	-11	-1%	-8
COC(=O)c1cc(COc2ccc3c4c(c(=O)oc3c2)CCC4)c(C)o1	·	·	·	0.8	·	6%	-1
Cc1cc(OCC(=O)N2CCC(C(N)=O)CC2)c2c(C)c(C)c(=O)oc2c1	-1.2%	9%	·	-1.1	·	15%	7
CNC(=O)c1cc(C(=O)c2ccc(Cl)cc2)c[nH]1	·	-5%	-17%[15.4 µM]	1.6	10	1%	-5
COc1ccc2ccccc2c1/C=N/NC(=S)Nc1cc(S(=O)(=O)N2CCOCC2)ccc1N1CCOCC1	?	-7%	19%[15.4 µM]	10	13	21%	-6
COC(=O)c1ccccc1NC(=O)n1cc(C)cn1	32µM*	16%	-7%	-0.1	3	16%	-16
O=C(NCc1cccnc1)C(=O)NCC1OCCCN1S(=O)(=O)c1ccccc1 (centres undefined)	0.5%	11%	0%	8.8	-13	10%	-2
COCCn1c(SCC(=O)NC2CCCC2)nc2ccccc2c1=O	0.4%	-1%	-26%	·	-2	·	2
